TRPML1 blocker: blocks the human TRPML1 channel; TRPML1-inducible cells, Ca2+ dye fluorescence, FDSS; active compounds read low; inhibition of EC80 agonist-evoked calcium signal; activity change, negative = inhibition, % (concentration not given with the values); 390,000 tested, 0.02% active; AID 624415; in the data active means activity change below about -50%; inconclusive means about -30% to -50%; inactive means above about -30%;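 further: stimulus is agonist 54-4 at its EC80 concentration; on the % scale 0 is the no-effect control and ±100 the full control effect; the text of the record puts the active cut at -80%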
Target sequence (Q9GZU1 whole entry, looked up): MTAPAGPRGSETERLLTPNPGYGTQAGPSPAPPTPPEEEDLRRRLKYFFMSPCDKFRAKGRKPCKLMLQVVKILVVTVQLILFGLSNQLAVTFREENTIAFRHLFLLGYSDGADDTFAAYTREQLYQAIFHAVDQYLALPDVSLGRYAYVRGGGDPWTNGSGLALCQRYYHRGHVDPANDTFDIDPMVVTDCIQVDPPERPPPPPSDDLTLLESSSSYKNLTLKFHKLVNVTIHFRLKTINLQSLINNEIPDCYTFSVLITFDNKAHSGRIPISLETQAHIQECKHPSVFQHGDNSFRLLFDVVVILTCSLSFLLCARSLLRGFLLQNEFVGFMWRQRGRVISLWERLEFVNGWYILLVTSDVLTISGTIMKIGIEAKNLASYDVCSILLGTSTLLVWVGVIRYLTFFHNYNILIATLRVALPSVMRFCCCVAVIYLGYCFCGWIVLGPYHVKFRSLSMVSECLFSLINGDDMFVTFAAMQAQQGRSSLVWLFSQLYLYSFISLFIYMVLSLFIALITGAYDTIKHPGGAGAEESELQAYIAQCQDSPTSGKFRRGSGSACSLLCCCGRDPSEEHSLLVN
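TRPML1-DL cells, Tet-induced overnight (~16 h, 37 °C) at 1,500 cells/well, were loaded with Ca8 no-wash dye plus quencher for 45-90 min at room temperature. Compounds were pinned during FDSS kinetic reading; agonist 54-4 at EC80 (4 uM final) then added.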
Menin MLL FP FL: menin-MLL binding inhibition, fluorescein peptide. 290,000 tested, under 10 active. Fluorescence polarization, fluorescein-MLL peptide displacement from menin. AID 1766. FP activity change, % at 61.4 µM; inconclusive = falling polarisation curve, or a change in total fluorescence; inactive = total fluorescence flat and polarisation flat or rising; no compound was filed as active; the % refers to the polarisation; negative = inhibition;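 further: % of control where 0% means no effect; inhibitors lower the polarisation; unlabelled MLL peptide was the positive control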
ClpP mod: qHTS Assay for Activators of ClpP; ATP-dependent Clp protease proteolytic subunit (Bacillus subtilis (strain 168)), P80244; Potency, µM (top dose mostly 57.5 µM), inactives show at the top dose activity change, negative = active; purified B. subtilis ClpP, FRET peptide cleavage, 20 min; 340,000 tested, 1.9% active; active = well fitted falling curve with a large enough effect; inconclusive = small, poorly fitted or top-dose-only effect; inactive = no such curve, though single readings can be large or run the other way; further: potency means the concentration at half of the fitted maximal effect; the source files actives as falling curves though it sought activators and does not explain the sign; nearly all actives have a fitted effect of over 65% in size; many hits overshoot -100%
Target sequence (P80244 whole entry, looked up): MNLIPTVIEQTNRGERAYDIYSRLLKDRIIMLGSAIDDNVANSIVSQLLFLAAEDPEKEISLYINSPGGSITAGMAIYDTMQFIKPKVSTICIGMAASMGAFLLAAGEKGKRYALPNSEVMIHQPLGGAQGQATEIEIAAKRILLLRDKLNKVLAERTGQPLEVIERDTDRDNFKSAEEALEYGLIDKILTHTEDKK
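Purified B. subtilis ClpP, 10 microg/mL final in Tris/HCl pH8 with KCl, BSA, glycerol and Tween-20, cleaved an Abz/nitrotyrosine-quenched decapeptide. Fluorescence (ex 320, em 430) was read at 0 and 20 min at room temperature. Delta was normalized to 5.8 microM ADEP and DMSO/no-enzyme controls.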
Sfp PPTase inh: inhibitors of Bacillus subtilis Sfp phosphopantetheinyl transferase; 310,000 tested, 3.5% active; Q9F4F7; Potency, µM, for inactives: max response, negative = inhibition, actives largely listed as inhibitors; Biochemical Sfp PPTase activity, qHTS; active means well fitted inhibition curve with a large enough effect; inconclusive means small, poorly fitted or top-dose-only effect, or another doubt; inactive means no such curve, though single readings can be large or run the other way;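 further: the enzyme is Sfp with the accession as filed and its product quenches rhodamine fluorescence; potency means the concentration at half of the fitted maximal effect; 0% = enzyme reaction without inhibitor and -100% = no enzyme wells; top concentration of the series not given in the record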
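Buffer: 50 mM Hepes-Na pH 7.6, 10 mM MgCl2, 0.01% Nonidet P-40, 0.01% BSA. Enzyme 15 nM, pre-exposed to compound 15 min; substrates then added and fluorescence change tracked over 30 min.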
gsp antag: antagonizes gsp, the McCune-Albright syndrome mutation; gsp-mutant cells, cAMP HTRF, 30 min; control for the full effect not named in the record; Potency, µM (highest dose often 76.9 µM), inactives show at the highest dose activity change, negative = inhibition, hits mostly inhibitors; 340,000 tested, 0.4% active; active = falling curve of any shape with a large fitted effect; inconclusive = falling curve, mostly with a smaller effect; inactive = flat or rising curve; cell line not stated here;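 further: intracellular cAMP measured with PDE inhibitor Ro 20-1724 present during compound exposure; potency means the concentration at half of the fitted maximal effect; on the % scale 0 is the no-effect control and ±100 the full control effect; nearly all actives have a fitted effect of over 65% in size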
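G418-selected cells were plated in DMEM/10% FBS for 16-24 h at 37C, then treated with compounds plus the PDE inhibitor […] (300 uM solution added) for 30 min at 37C. Intracellular cAMP was measured by HTRF after 30 min lysis at room temperature.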
TRPV1 potentiator: enhances activation of the human vanilloid receptor TRPV1; TRPV1-expressing cells, Fluo-8 calcium influx, capsaicin EC20 potentiation; host cell line not named in the record; control for the full effect not named in the record; potentiation, % at 8.33 µM; 320,000 tested, 0.02% active; Q8NER1; AID 540277; active means potentiation above 80%; inconclusive means 30% to 80%; inactive means below 30%; further: 0% is about no effect
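Fluo-8 calcium influx in TRPV1-expressing cells, kinetic read (ex 480/em 520 nm). Compound added and read 3 min for agonist activity, followed by capsaicin at EC20 final and 2 min further read for enhancement.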
gsp ag: gsp mutant agonism; gsp mutant cells, cAMP HTRF, 30 min; control for the full effect not named in the record; AID 624287; 340,000 tested, 0.13% active; Potency, µM (highest dose often 76.9 µM), without a hit: top-dose activation (cAMP increase), usual class: activators; active = well fitted activation curve with a large enough effect; inconclusive = small, poorly fitted or top-dose-only effect, or another doubt; inactive = no such curve, though single readings can be large or run the other way; cell line not stated here;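 further: phosphodiesterase inhibitor Ro 20-1724 added with compounds to block cAMP breakdown; potency means the concentration at half of the fitted maximal effect; nearly all actives have a fitted effect of over 60% in size; about a fifth of the inactives were tested at one dose only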
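Cells in DMEM/10% FBS with G418 were pretreated with compounds in DMSO plus […] (300 uM stock) for 30 min at 37C. cAMP was measured by HTRF (cAMP-d2 plus anti-cAMP antibody-K) after 30 min at room temperature.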
An asterisk follows results filed as active; ? = inconclusive; · = not tested or not shown; & = joins results of further samples; [ ] = dose if it differs, or a comment. The order is random; about 4.9% have a hit in one of these screens.

SMILES	TRPML1 blocker	Menin MLL FP FL	ClpP mod	Sfp PPTase inh	gsp antag	TRPV1 potentiator	gsp ag
COc1cccc(C2C(C(=O)OC(C)C)=C(C)Nc3ncnn32)c1 (centres undefined)	-5	-0.9	-8.1%	23%	-5%	-7	0%
COC(=O)/C(C#N)=C/c1ccc(-c2ccc(S(N)(=O)=O)cc2)o1	15	-4.8	·	-3%	-16%	-6	3%[15.4 µM]
Cc1ccccc1-c1ccc2c(c1)O[C@H](CN(C)C(=O)C1CC1)[C@@H](C)CN([C@@H](C)CO)S2(=O)=O	8	·	-3.8%	·	·	·	?
CC1=CC(=C(C#N)c2nc3ccccc3s2)C=C(C)N1CC1CCCO1 (centres undefined)	-24	?	·	-8%	?	-5	1%[15.4 µM]
CN(CC(=O)Nc1ccccc1Cl)C(=O)COC(=O)c1cc([N+](=O)[O-])ccc1N1CCOCC1	17	·	-1.4%	·	-1%	-7	-19%
O=C(CN1C(=O)NC2(CCc3ccccc32)C1=O)NCCc1ccccc1 (centres undefined)	8	·	2.9%	·	0%	1	10%[15.4 µM]
O=C(CS(=O)c1ccc(C(F)(F)F)cc1[N+](=O)[O-])Oc1ccccc1 (centres undefined)	-11	1.7	-1.9%	13%	4%	4	-1%
Cc1cccc(NC(=S)N2CCN(c3ccccn3)CC2)c1	·	-5.7	-11%	20%	-4%	?	-3%
Cc1ccc(-c2nc3ccccc3c(C(=O)NCc3cccs3)c2C)cc1	24	2.7	-1.4%	?	-27%	-15	-2%
Cc1ccccc1C(=O)NC(=S)Nc1ccccc1C(=O)O	-2	-3.3	·	?	-1%	12	9%
Cc1nn(CCCC(=O)N2CCN(c3ccc(F)cc3)CC2)c(C)c1[N+](=O)[O-]	-1	-5.3	·	15%	-5%	-2	2%[15.4 µM]
N#Cc1nc(-c2ccc(F)cc2)oc1NCc1ccco1	3	1.2	4.2%	16%	-3%	6	19%
CCOC(=O)c1cnn(C)c1NC(=O)c1ccc([N+](=O)[O-])cc1	-12	-6.8	·	16%	5%	0	9%[15.4 µM]
CCCc1cc(C(=O)N/N=C/c2ccc(CC)s2)c2ccccc2n1	-4	3.5	1.1%	11%	-8%	7	-7%
Cn1c(CN2CCOCC2)nnc1SCC(=O)Nc1cc(Cl)ccc1Cl	5	-7.3	·	-4%	-6%	1	1%
S=C(c1cccs1)N1CCN(c2ccccc2)CC1	15	·	-1.8%	·	-7%	·	-26%
COc1cc2c(cc1OC)C(c1cccs1)N(C(=O)c1ccc(S(=O)(=O)N(C)C)cc1)CC2 (centres undefined)	18	0.6	-0.5%	4%	?	16	-12%
O=C1c2c(O)cccc2Cc2cccc(O)c21	25	?	0.4%	-9%&7%	6%	5	?
Cc1ccc(NC(=O)C2CCCN(c3ncnc4c3nc3n4CCCCC3)C2)nc1 (centres undefined)	-7	1.3	-0.4%	7%	-5%	-25	?
CCOC(=O)C1CCN(C(C(=O)Nc2ccc3c(c2)OCCO3)c2ccccc2)CC1 (centres undefined)	0	-1.2	-1.2%	5%	11%	-13	-13%
Oc1ccc(-c2nnc(SCc3ccccc3)o2)cc1	24	6.6	·	0%	6%	13	16%
O=C(CCc1nc2ccccc2c(=O)[nH]1)NCCN1C(=O)S/C(=C\c2ccc(Cl)cc2Cl)C1=O	-2	·	0.9%	·	?	5	-5%[15.4 µM]
CCN(CC)S(=O)(=O)c1ccc(NC(=O)Cn2c(=O)oc3ccccc32)cc1	8	-1.1	?	8%	1%	-16	-20%
C[C@H]1CN([C@@H](C)CO)C(=O)Cc2cc(NC(=O)Cc3cn(C)c4ccccc34)ccc2O[C@@H]1CN(C)S(=O)(=O)c1cn(C)cn1	0	·	0.6%	·	3%	·	·
COc1ccc(NC(=O)C2CCCC2)cc1	5	1.4	·	14%	3%	?	-42%[inhibitor]
SMILES	TRPML1 blocker	Menin MLL FP FL	ClpP mod	Sfp PPTase inh	gsp antag	TRPV1 potentiator	gsp ag
COc1ccc2[nH]cc(CCNC(=O)CC[C@H]3O[C@@H](n4cc(C)c(=O)[nH]c4=O)C[C@@H]3O)c2c1	-1	·	0.2%	·	-1%	·	·
NC(=O)CC(NC(=O)Cc1cccc2ccccc12)c1ccc(NC2CCCCCCC2)c([N+](=O)[O-])c1 (centres undefined)	-6	-7.7	-2.5%	11%	7%	-23	·
NC(=O)C1CCN(C(=O)CN2CCc3ccccc32)CC1	6	-3.5	-0.5%	-11%	6%	-21	-52%[inhibitor]
COc1ccc(C(=O)/C=C/c2cccs2)c(OC(=O)N2CCOCC2)c1	-6	2.7	·	12%	-2%	2	-2%[15.4 µM]
CCOc1ccc(S(=O)(=O)N2CCOCC2)cc1NC(=O)Cc1c(F)cccc1Cl	6	·	·	·	11%	-25	-6%[15.4 µM]
Cc1ccc(NCCC(=O)c2cccc([N+](=O)[O-])c2)cc1	-6	-2.1	1.1%	2%	-7%	12	-12%
CCN(C(=O)COC(=O)c1cccnc1Nc1ccccc1F)C1CCS(=O)(=O)C1 (centres undefined)	-22	10	0.9%	-17%	11%	27	-27%
CN(c1ccccc1)S(=O)(=O)c1ccc(C(=O)NCC(c2ccco2)N2CCCCC2)cc1 (centres undefined)	-12	·	-0.7%	·	-7%	7	-27%
C=CCOc1ccc2c(c1)c(S(=O)(=O)c1ccc(C)cc1)cn2COC	43	0.1	-6.9%	0%	9%	13	-5%
COc1ccc(OC)c(NC=C2C(=O)OC(C)(C)OC2=O)c1	-16	1.6	2.6%	?	-1%	8	4%
Cc1ccc(C)c(S(=O)(=O)C(C#N)c2nc3ccccc3nc2N2CC(C)OC(C)C2)c1 (centres undefined)	28	3.6	-0.5%	5%	?	8	-4%
CC1C=CCC2C(=O)N(c3cccc(C(=O)N4CCN(c5ccc(F)cc5)CC4)c3)C(=O)C12 (centres undefined)	-1	4.0	-1.0%	-10%	-12%	9	28µM*
O=C1C=CC(=O)N1CCCCCCCCCCN1C(=O)C=CC1=O	6	·	·	·	35µM*	·	9%
CC1CCN(S(=O)(=O)N2CCC(C(=O)NCCN3CCOCC3)CC2)CC1	-8	4.5	0.6%	16%	0%	1	-1%
CCN(CC(=O)Nc1cccc(S(=O)(=O)N2CCOCC2)c1)Cc1ccccc1	-17	·	-1.1%	·	5%	-2	35%
COc1ccc(N2CCN(C(CNC(=O)C(=O)NCCCO)c3ccco3)CC2)cc1 (centres undefined)	-7	1.3	-0.4%	12%	-1%	9	17%
O=C1CC(N2CCOCC2)C(=O)N1c1cccc(Cl)c1 (centres undefined)	-13	18	2.9%	9%	1%	1	4%
N=C(N)SCc1ccc(Cl)c2ccccc12	5	·	0.8%	·	-6%	·	?
Cc1nn(CCc2nc(-c3ccco3)cs2)c2[nH]c(=O)cc(C(F)(F)F)c12	24	6.9	-19%	?	1%	?	?
CN1CCc2ccccc2C1C1CCNCC1 (centres undefined)	-1	4.3	-0.8%	6%	2%	2	-30%
COc1ccc(OC)c(NC(=O)C2CCN(C(=O)C3CC(=O)N(c4ccc(C)cc4)C3)CC2)c1 (centres undefined)	-9	·	·	13%	?	-1	5%[15.4 µM]
O=C(NCCS(=O)(=O)N1CCN(c2ccccc2)CC1)c1cccs1	-13	·	·	·	11%	3	9%[15.4 µM]
COC(=O)CCCCCCCCCCN1CCCCC1	37	5.7	-0.1%	19%	20%	10	-3%
COC(=O)c1cccc(NC(=O)CC2C(=O)NCCN2C(=O)Nc2cc(C)cc(C)c2)c1 (centres undefined)	7	·	-0.3%	-1%	-5%	-15	-67%[inhibitor]
COc1cccc(NC(=O)COC(=O)C2CCCCC2)c1	-4	·	-2.5%	·	6%	·	10%
SMILES	TRPML1 blocker	Menin MLL FP FL	ClpP mod	Sfp PPTase inh	gsp antag	TRPV1 potentiator	gsp ag
O=C(O)c1ccc(NN=Cc2cc(=O)[nH]c(=O)[nH]2)cc1	1	·	0.1%	·	-14%	·	1%
COc1ccc(S(=O)(=O)N(C)C[C@@H]2Oc3ccc(NS(=O)(=O)c4cn(C)cn4)cc3C(=O)N([C@@H](C)CO)C[C@@H]2C)cc1	7	·	-6.7%	·	7%	·	·
COc1ccc(CNC(=O)C2CCN(C(=O)[C@@H]3Cc4ccccc4CN3)CC2)cc1	2	-7.9	-4.5%	7%	0%	5	13%
O=c1[nH]c2ccccc2c2oc(CCl)nc12	5	-1.9	·	6.3µM*	-4%	·	13%[15.4 µM]
O=C(c1cnc2n(c1=O)CCS2)N1CCN(c2ccccc2F)CC1	13	4.3	-2.2%	12%	-4%	-12	-68%[inhibitor]
O=C1CCCCC1C1(O)C(=O)Nc2ccccc21 (centres undefined)	20	·	-1.1%	·	·	·	3%
Cc1ccccc1N1CCN(C2CCCN(C(=O)c3ccc(Cl)s3)C2)CC1 (centres undefined)	5	·	-2.1%	7%	-32%	-5	22%
Cc1noc(NS(=O)(=O)c2ccc(NC(=O)c3cccc(S(=O)(=O)N(C)c4ccccc4)c3)cc2)c1C	-5	·	1.3%	·	-5%	·	26%
CCNc1nc(C)c2cc(Br)c(=O)n(CC)c2n1	4	-3.8	?	4%	8%	-1	20µM*
Cc1ccc(Cl)cc1NC(=S)N(CCCN1CCN(C)CC1)Cc1ccco1	2	-1.8	·	10%	3%	1	12%[15.4 µM]
CCOC(=O)C1CCN(C(=O)Cn2cc(C#N)c3ccccc32)CC1	3	1.3	-0.9%	6%	-8%	-10	-22%
N#Cc1nc(COc2ccc(Br)cc2)oc1N1CCCC1	36	0.1	0.8%	-4%	-9%	4	-3%
O=c1c2ccccc2nnn1CSc1nnnn1-c1ccccc1	11	-0.4	-1.9%	12%	-8%	-9	18%
CC1CC(C)CN(C(=O)COC(=O)c2nn(C)c(=O)c3ccccc23)C1 (centres undefined)	-13	·	-2.9%	·	-1%	-12	7%[15.4 µM]

Screening data: PubChem BioAssay, National Center for Advancing Translational Sciences (NCATS)
